NPYLR7 agonist: mosquito NPYLR7 agonism | AID 1259423 | HEK293T NPYLR7/Galpha15, GCaMP6s calcium fluorescence | 270,000 compounds, 0.15% hits | activation, % at 10 µM; in the data active = activation above about 40%;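 note: 0% = vehicle and 100% = reference agonist at the receptor; some compounds past the cut are filed as inactive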
NPYLR7 agonist max-min: further read-out of NPYLR7 agonist, marked with its call; activation, %; measured here: Max-Min RFU normalised activation; some inactives read as strong as hits;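 span of the calcium signal over five minutes; 0% = vehicle and 100% = native peptide agonist; compound fluorescence can raise it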
The depositor's hits bear a star; & = joins results of further samples. This is a subset; count on the stated rates, not on these rows.

SMILES	NPYLR7 agonist	NPYLR7 agonist max-min
COc1ccc(-c2csc(-n3[nH]c(-c4ccccc4)c(N=Nc4cccc(Cl)c4C)c3=O)n2)cc1	-5	-11
O=C(CCn1ccccc1=O)Nc1cnc2n1CCCC2	12	11
Cc1nn(-c2ccc(Nc3ccc(NS(=O)(=O)c4ccccc4)cc3)nn2)c(C)c1C	-4	-10
CC1CCCC(NC(=O)CN2C(=O)NC3(CCc4ccccc43)C2=O)C1C (stereo not given)	-5	8
COc1ccc(NC(=O)c2nnn(-c3ccccc3)c2N)cc1	4	7
O=C(COc1c(Cl)cccc1Cl)c1ccc(N2CCCC2=O)cc1	12	5
c1cn2cc(CNc3ccc(-c4nc(C5CC5)no4)cn3)nc2s1	4	4
N#Cc1ccccc1CNc1ccc(C(=O)N2CCOCC2)c(Cl)c1	1	2
CCc1nnc(SCc2cc(=O)n3cc(Br)ccc3n2)nc1CC	4	2
Cc1cccc(C)c1OCC(=O)N1CCC1	8	5
CCOc1ccc(-n2c(C)c(C)n3c4c(=O)n(CCCO)c(=O)n(C)c4nc23)cc1	-3	-5
CC(C)C(=O)Nc1sc2c(c1C(=O)NC1CCCCCC1)CCC2	0	-3
COc1cc(C(=O)NC(Cc2ccccc2)c2ccccc2)ccc1Oc1nc(Cc2ccc(F)cc2)ns1 (stereo not given)	35	34
CC(NC(=O)CN1CCN(c2cc(F)cc(F)c2)CC1)C1CC1 (stereo not given)	3	0
CC(C(=O)NC(=O)NC12CC3CC(CC(C3)C1)C2)N(C)Cc1c(Cl)nc2sccn12 (stereo not given)	5	2
Cc1nccn1-c1c2c(c(C#N)c3nc4ccccc4n13)CCCC2	10	7
Cc1nc2c(c(N(C)C)n1)CCN(C(=O)c1ccccc1-c1ncc[nH]1)C2	10	6
CN(C)C(=O)c1ccc2c(c1)N(C)C(CC(=O)N1CCc3[nH]ncc3C1)CO2 (stereo not given)	3	-3
CCOC(=O)c1nn(CC(C)C)c2c1CN(C(=O)CSc1nnc(C)s1)CC2	15	3
CCOC(=O)c1nn(-c2ccc(C)cc2)c(=O)cc1OS(=O)(=O)c1ccc(F)cc1	-2	1
CCOc1ccccc1C(=O)Nc1ccc(N2CCN(S(=O)(=O)c3cc(C)cc(C)c3)CC2)nc1	6	8
O=C(Cn1c(=O)ccc2ccccc21)NCC(F)(F)F	5	1
O=C(NCc1cccc(F)c1)c1csc(COc2ccc(F)cc2F)n1	4	17
CN(CC1COCCO1)c1nc(C(C)(C)C)nc2c1cnn2C (stereo not given)	20	17
O=C(NCC1CC1)C1Cc2c(-c3cccc(F)c3)ccnc2O1 (stereo not given)	10	21

Reprinted at random: four compounds from above
SMILES	NPYLR7 agonist	NPYLR7 agonist max-min
O=C(CCn1ccccc1=O)Nc1cnc2n1CCCC2	12	11
CC1CCCC(NC(=O)CN2C(=O)NC3(CCc4ccccc43)C2=O)C1C (stereo not given)	-5	8
O=C(COc1c(Cl)cccc1Cl)c1ccc(N2CCCC2=O)cc1	12	5
O=C(NCC1CC1)C1Cc2c(-c3cccc(F)c3)ccnc2O1 (stereo not given)	10	21

(listing goes on)
SMILES	NPYLR7 agonist	NPYLR7 agonist max-min
CSc1nc(C2CC2)cc(C(=O)Nc2cc(C)ccc2C)c1C#N	5	4
CCOC(=O)c1ccc(S(=O)(=O)NCCCn2nc(-c3ccncc3)ccc2=O)cc1	8	2
Cc1nn2c(=O)[nH]c(SCC(=O)NCc3ccco3)nc2c1-c1ccccc1	7	0
O=C(CCNc1nc(-c2ccccc2)nc2ccccc12)NCc1cccc(C(F)(F)F)c1	20	25
COCCN(Cc1c(-c2ccccc2)noc1N1CCN(C)CC1)C(=O)Cc1ccccc1	-4	-1
CC(C)Nc1ncccc1C(=O)NC12CC3CC(CC(C3)C1)C2	-14	-21
CCC(=O)N1CCC1(C)C(=O)Nc1ccccc1 (stereo not given)	5	3
COc1cccc(C(=O)NCCc2cc3c(C)ccc(C)c3[nH]c2=O)c1	-1	3
CC(=O)NCC1CC(=O)N(c2ccccc2)C1 (stereo not given)	5	8
CC1=CC[C@@H]2CN(C(=O)c3ccc4ncccc4c3)C[C@@H]2C1	6	3
COc1ccc(Cc2nnc(NC(=O)C(C)(C)C)s2)cc1OC	-8	-14
CC(C)N(C)C(=O)C1CCCN1S(C)(=O)=O (stereo not given)	-1	-1
Cc1cc(Cl)ccc1NC(=O)c1ccc(Cl)o1	-7	-8
COCCN1CN=C(Nc2nc3ccccc3o2)NC1	10	4
O=C(CSc1ccc2nc(-c3ccccc3)cn2n1)N1CCOCC1	4	0
COCCN(CC(=O)N(CCc1c[nH]c2ccccc12)Cc1ccc(C)cc1)C(=O)Nc1ccc(F)c(F)c1	5	17
CC1(C)CC2CC(C)(CN2C(=O)c2ccc(CSc3nc(Cl)cc(N4CCC5(CC4)OCCO5)n3)cc2)C1 (stereo not given)	3	19
CC(C)(NC(=O)c1ccc(F)c(F)c1)c1ccccc1	3	2
Cc1cn2c3c(=O)n(C)c(=O)n(C)c3nc2n1-c1ccc(Cl)cc1	-3	-5
COc1ccc(O)c(C(=O)c2cc(C#N)c(=O)n(-c3nccs3)c2)c1	-8	-10
O=C(COc1cc(F)ccc1[N+](=O)[O-])Nc1ccc(S(=O)(=O)C(F)F)cc1	6	0
Cc1nn(-c2ccccc2)nc1C(=O)N1CCCC1c1nnc2n1CCCCC2 (stereo not given)	-1	24
COC(=O)c1ccc(OC(C(=O)NC2CC2)c2ccccc2)cc1 (stereo not given)	-7	-7
CC(C)CNC(=O)[C@@]1(OCc2cccc(Cl)c2)CC(OCc2ccc(C(F)(F)F)cc2)[C@H](O)[C@H](O)C1 (stereo not given in full)	12	18
NC(Cc1ccccc1)c1csc(Nc2nncc3ccccc23)n1 (stereo not given)	-2	-4

Later entries:
SMILES	NPYLR7 agonist	NPYLR7 agonist max-min
CCc1nnc(CN(C)c2nc(C)ncc2CC)o1	3	4
COc1ccc2nc(N(Cc3cccnc3)C(=O)CCc3ccccc3)sc2c1	-8	-7
CN(C)c1ccc(C(N)=S)cc1	0	-2
COc1ccc(C(=O)N2CCC(n3nccc3NC(=O)c3ccccc3C)CC2)o1	5	4
Cc1ccsc1C(CNC(=O)c1cnn2ccn(C)c12)N(C)C (stereo not given)	20	7
O=C(c1ccccc1F)N1CCN(c2ccc([N+](=O)[O-])c3ncccc23)CC1	-12	-14
Cc1ncc(C)c(N2CCC(c3[nH]ncc3Cc3ccccc3)CC2)n1	12	4
O=C(NCc1nnnn1C1CCCCC1)Nc1c(F)cccc1F	-2	-3
CC(C)(C)c1ccc(C(O)c2ncc(-c3cccc(F)c3)[nH]2)cc1 (stereo not given)	0	1
Cc1cc(-c2ccccc2)nc2cc(C(=O)NCc3ccco3)nn12	-11	-16
O=c1[nH]c2cc3[nH]c(=O)c(=O)[nH]c3cc2[nH]1	1	8
CCN(CC)c1ccc(-c2nnc(SC3CCCCNC3=O)o2)cc1 (stereo not given)	6	1
COc1c(C)cnc(CNC(=O)NCc2nnc3n2CCC3)c1C	1	0
CCc1[nH]c(C(=O)N2CCCC(NC(=O)C(C)C)C2)c(C)c1C(=O)OC (stereo not given)	-2	-4
COCCN(Cc1nc2cc(Cl)ccc2o1)C(=O)c1cc(F)cc(F)c1	1	-1
Nc1nc(N2CCCCC2)nc(N2CCN(Cc3ccccc3)CC2)c1[N+](=O)[O-]	0	-1
Cc1ccc(-n2nc(C)c(N=Nc3ccc(F)cc3C)c2N)cc1	7	4
COc1ccc(CCNC(=O)Cn2nc([N+](=O)[O-])c(Br)c2C)cc1OC	-3	-7
CC1(C(=O)NS(=O)(=O)c2ccc(Cl)cc2)CCN1C(=O)Cc1cc(F)ccc1F (stereo not given)	1	1
COc1ccccc1C(=O)N1CCCN(c2nc(Cc3ccc(F)cc3)ns2)CC1	17	19
Cn1c2ccccc2c(=O)c2c(=O)n(CCc3ccccc3)c(-c3ccco3)nc21	6	5
CCCCCCCCCCCCCCCC[N+](C)(C)CCN(Cc1ccc(OC)cc1)c1ncccn1	-10&-1	-11&-6
O=C1C(Nc2cccc(O)c2)=C(n2nnc3ccccc32)C(=O)c2ccccc21	-1	-2
Cc1cccc(-c2ncc(CN(C)Cc3cn[nH]c3-c3ccccc3)cn2)c1	-2	-8
Cc1ncc2c(c1CNC(=O)CSc1ccccc1)CCN(C(=O)CC1=CCCCC1)C2	14	2

Continued.
SMILES	NPYLR7 agonist	NPYLR7 agonist max-min
COCCN(CC1CCN(Cc2ccccc2F)CC1)C1CCC1	11	3
O=c1oc2ccccc2cc1-c1nnc(-c2ccccc2)o1	-5	-9
Cc1cc(C)cc(NC(=O)CCc2ccc(S(=O)(=O)N3CCCCC3)cc2)c1	6	5
CCC1CN(C(=O)CCCn2cccn2)CCC(=O)N1Cc1ccccc1 (stereo not given)	9	8
COCCNc1ccc(CNC(=O)C(C)(C)C#N)cc1	0	-3
O/N=C(/c1ccccc1)C12C3C4C1C1C2C3C1(Br)C41OCCO1 (stereo not given)	-5	-5
Cc1n[nH]c(C)c1CN1CCC(N2CCCC(C(=O)N3CCCC3)C2)CC1 (stereo not given)	3	1
CC(=O)Nc1ccc(/C=C2\C(=O)N(c3ccccc3)N=C2C)cc1	-7	-13
CC(C)n1c(CN2CCC(N3CCCC3=O)CC2)nc2ccccc21	3	2
CCOC(=O)COn1c(=O)c(-c2ccc(Cl)cc2)[n+]([O-])c2ccccc21	1	-1
CCOC(=O)C(=O)N1CCC2(CC1)OCCN2S(=O)(=O)c1ccc(C)cc1	-3	1
O=C(NC(Cc1ccccc1)C(=O)Nc1nnc(-c2ccc3c(c2)OCO3)s1)c1cc(C(F)(F)F)cc(C(F)(F)F)c1 (stereo not given)	5	9
COc1ccc(NC(=O)CSc2nncc(=O)[nH]2)cc1	3	2
Cn1ccc2c(-c3ccc(C(O)CN4CCOCC4)cc3)ccnc21 (stereo not given)	9	6
Cc1cccc(Cn2ccc3ccn(CC(=O)Nc4ccc(F)cc4Cl)c(=O)c32)c1	-9	-11
CC(=O)N1CCC(NC(=O)c2cc3c(C)nn(Cc4ccc(Cl)cc4Cl)c3s2)CC1	0	8
CN(CC1CCCN(CCc2ccc(Cl)cc2)C1)C(=O)c1ccc(-n2cnnn2)cc1 (stereo not given)	-2	-2
CC(C)c1ccc(CN(Cc2ccc(F)cc2)Cc2nc(C(=O)O)co2)cc1	14	19

A stretch taken from the entries so far:
SMILES	NPYLR7 agonist	NPYLR7 agonist max-min
COc1ccccc1C(=O)N1CCCN(c2nc(Cc3ccc(F)cc3)ns2)CC1	17	19
Cn1c2ccccc2c(=O)c2c(=O)n(CCc3ccccc3)c(-c3ccco3)nc21	6	5
CCCCCCCCCCCCCCCC[N+](C)(C)CCN(Cc1ccc(OC)cc1)c1ncccn1	-10&-1	-11&-6
O=C1C(Nc2cccc(O)c2)=C(n2nnc3ccccc32)C(=O)c2ccccc21	-1	-2
Cc1cccc(-c2ncc(CN(C)Cc3cn[nH]c3-c3ccccc3)cn2)c1	-2	-8
Cc1ncc2c(c1CNC(=O)CSc1ccccc1)CCN(C(=O)CC1=CCCCC1)C2	14	2
COCCN(CC1CCN(Cc2ccccc2F)CC1)C1CCC1	11	3
O=c1oc2ccccc2cc1-c1nnc(-c2ccccc2)o1	-5	-9
Cc1cc(C)cc(NC(=O)CCc2ccc(S(=O)(=O)N3CCCCC3)cc2)c1	6	5
CCC1CN(C(=O)CCCn2cccn2)CCC(=O)N1Cc1ccccc1 (stereo not given)	9	8
COCCNc1ccc(CNC(=O)C(C)(C)C#N)cc1	0	-3
O/N=C(/c1ccccc1)C12C3C4C1C1C2C3C1(Br)C41OCCO1 (stereo not given)	-5	-5
Cc1n[nH]c(C)c1CN1CCC(N2CCCC(C(=O)N3CCCC3)C2)CC1 (stereo not given)	3	1
CC(=O)Nc1ccc(/C=C2\C(=O)N(c3ccccc3)N=C2C)cc1	-7	-13
CC(C)n1c(CN2CCC(N3CCCC3=O)CC2)nc2ccccc21	3	2
CCOC(=O)COn1c(=O)c(-c2ccc(Cl)cc2)[n+]([O-])c2ccccc21	1	-1
CCOC(=O)C(=O)N1CCC2(CC1)OCCN2S(=O)(=O)c1ccc(C)cc1	-3	1
O=C(NC(Cc1ccccc1)C(=O)Nc1nnc(-c2ccc3c(c2)OCO3)s1)c1cc(C(F)(F)F)cc(C(F)(F)F)c1 (stereo not given)	5	9
COc1ccc(NC(=O)CSc2nncc(=O)[nH]2)cc1	3	2
Cn1ccc2c(-c3ccc(C(O)CN4CCOCC4)cc3)ccnc21 (stereo not given)	9	6
Cc1cccc(Cn2ccc3ccn(CC(=O)Nc4ccc(F)cc4Cl)c(=O)c32)c1	-9	-11
CC(=O)N1CCC(NC(=O)c2cc3c(C)nn(Cc4ccc(Cl)cc4Cl)c3s2)CC1	0	8
CN(CC1CCCN(CCc2ccc(Cl)cc2)C1)C(=O)c1ccc(-n2cnnn2)cc1 (stereo not given)	-2	-2

Screening results (PubChem BioAssay)
